Bioassay records (PubChem BioAssay)
Sa ugtP lethal: growth inhibition of S. aureus ugtP deletion strain. AID 1259309. S. aureus RN4220 ugtP deletion, OD600 growth, 16 h; some inactives read as strong as hits. growth inhibition, % (no concentration beside the values). 330,000 tested, 0.54% active;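 active = z-score under -3 and OD600 up to 0.15 on both plates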;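 note: plate controls were untreated wells for no effect and antibiotic for full effect; wells of about 80 µL received 100 nL stock; the first replicate is given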
BJeLR viability: BJeLR cell viability loss. AID 1554. BJeLR (HRASV12) viability, CellTiter-Glo ATP luminescence, 48 h; reference of the scale not given here. 300,000 tested, 0.17% active. inhibition, % (no concentration beside the values);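 active = replicate mean above 50%; inconclusive = above 50% but judged a plate artefact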;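 note: 50 nL library stock added to about 25 µL; numbers are from one replicate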
PrP 5UTR inh: suppresses PrP 5' UTR mRNA reporter expression. 340,000 tested, 0.35% active. cell-based PrP 5' UTR mRNA reporter, plate reader. inhibition, % (concentration not given with the values);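 active = every replicate at 50% or more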;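 note: 0 = median of the neutral control wells; tested in H4 reporter cells; numbers are from one replicate; inactives centre near -14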
Mtb hypoxia inh: Mtb hypoxia fluorescent reporter inhibition | fluorescence inhibition, % (concentration not given with the values) | M. tuberculosis hypoxia-regulated fluorescent reporter, fluorescence | 300,000 tested, 0.1% active | AID 1159583;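 active = 35 to 45% if threefold the growth effect, above 45% if 1.5-fold the growth effect; inactive = the rest, general growth blockers included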;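 note: wells of about 50 µL received 100 nL stock; 0% = vehicle wells and 100% = reference inhibitor wells; whole bacteria with a GFP reporter of the hypoxia response; strong numbers were not always called active; many hits fall short of the cut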
Bead autofluor: counter-screen for toxin protease inhibitors: compound fluorescence | compound autofluorescence counterscreen, microsphere flow cytometry; stronger effect = higher value | fluorescence intensity (concentration not given with the values) | 360,000 tested, 3.1% active | AID 624483;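 active = at least 3 SD above the mean of all compounds, about 16000 in these data; inconclusive = too few beads counted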;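 note: 100 nL of 1 mM stock went into each well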
Sa RN4220 lethal: S. aureus RN4220 growth inhibition. OD600, 16 h. inhibition, % (test concentration not listed). 330,000 tested, 0.33% active;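 active = z-score of -3 or lower and OD600 up to 0.18 on both plates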;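 note: plate controls were untreated cells for no effect and reference antibiotic for full effect; stock transfer was 100 nL into about 80 µL; one replicate is shown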
Mtb hypoxia inh growth: further read-out of Mtb hypoxia inh, marked with its call; growth inhibition, %; measured here: M. tuberculosis growth (absorbance);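 0% = vehicle and 100% = reference antibiotic; read after six days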
Active calls of the source: *; ? = inconclusive; · = no result given. Outcome played no part in choosing rows. About 4.1% of those tested had a hit in this group.

SMILES	Mtb hypoxia inh	Mtb hypoxia inh growth	Sa RN4220 lethal	Sa ugtP lethal	Bead autofluor	BJeLR viability	PrP 5UTR inh
S=c1[nH]nc(-c2ccco2)n1N=Cc1c(Cl)cccc1Cl	11	9	9.8	-1	·	·	·
CCN(CC)CCn1c2c(c(SCC(=O)Nc3ccc4c(c3)OCCO4)nc1=O)CCC2	-2	7	0.3	3	6659	-8	-1
CC(C)CN1CC(C)C(=O)N(c2ccccc2)C1=S (configuration not stated)	5	-5	2.7	2	4133	·	-12
C[C@H](CO)N1C[C@H](C)[C@H](CN(C)C(=O)Nc2cccc3ccccc23)Oc2c(NC(=O)c3ccc(-c4nccs4)cc3)cccc2C1=O	-4	11	-20	-16	3853	·	-31
CC(C)(C)OC(=O)NCCc1nnc(SCc2ccccc2Cl)o1	0	3	6.7	7	16944*	-2	-2
COc1ccc(S(=O)(=O)N2CCCC2)cc1C(=O)N1CCCCC1	11	4	3.3	15	4573	0	2
COC(=O)c1cc(=O)c2cccc(OC)c2[nH]1	-6	-3	3.0	2	5628	5	-20
Cc1ccccc1OCC(=O)Nn1c(COc2ccccc2)nc2ccccc2c1=O	·	·	110*	99*	3444	1	-19
O=[N+]([O-])c1ccccc1CN1CC=C(c2ccc(F)cc2)CC1	-9	-8	10.0	11	3601	0	-35
COc1cccc(CNCc2ccc(OC)c3ccccc23)c1OC	-3	2	2.4	-1	3958	-8	-11
O=C(COc1ccc(Br)cc1)N/N=C1/SCC(=O)N1Cc1ccco1	·	·	·	·	4258	-18	-21
COC(=O)c1cc(C(=O)Nc2nc3ccccc3[nH]2)cc([N+](=O)[O-])c1	-7	12	1.6	-11	3805	3	-26
NS(=O)(=O)c1cccc(NC(=O)CN2CCc3ccccc32)c1	-7	5	-3.1	-13	4906	0	-16
COc1ccc(C2=NN(C)C(=NCc3ccccc3)SC2)cc1	8	7	12	2	24219*	2	-19
CCCC(=O)Nc1nnc(SCC(=O)N2CCCCC2)s1	-12	2	-0.8	3	5202	-9	-51
COc1ccc(C2C(C#N)=C(N)N(c3sc4c(c3C#N)CCCC4)C3=C2C(=O)CC(C)(C)C3)cc1 (configuration not stated)	8	5	6.5	8	10685	-18	-34
Cc1nc2ccccc2c2c(N)cccc12	6	7	2.1	2	3573	·	-26
O=C(c1cc([N+](=O)[O-])cc([N+](=O)[O-])c1)N(c1ccccn1)c1ccccn1	7	13	11	15	2072	-11	-24
CCOc1ncccc1C(=O)Nc1ccc2nc(C)sc2c1	-4	7	1.4	4	4372	-1	-22
O=C(Nc1ccc(Cl)cc1)C(Cl)C(=O)c1ccccc1 (configuration not stated)	·	·	·	·	4053	2	-32
CCOC(=O)NC1(NC(C)C)Oc2ccccc2O1	·	·	1.5	-5	5640	1	6
O=C(Oc1c(Br)cc(C(=S)N2CCOCC2)cc1Br)c1ccc(Cl)cc1	·	·	5.9	-3	4894	1	8
COc1cc(C(=O)Nc2cccc(NC(=O)c3cccs3)c2)cc(OC)c1OC	3	-6	1.9	0	3895	-9	-10
CCC[n+]1c(C)sc2c3c(ccc21)CCCC3	10	-8	97*	95*	3339	·	-10
CCOC(=O)c1cnc2cc(Cl)c(OC)cc2c1NCC1CCCO1 (configuration not stated)	·	·	5.3	-1	3098	10	-26
CCOC(=O)C1CCN(C(=O)COC(=O)c2ccc([N+](=O)[O-])o2)CC1	21	4	3.4	7	3274	·	-23
O=C(CNCc1ccco1)Nc1ccc(Oc2ccccc2)cc1	5	10	3.3	2	4175	·	-20
Cc1ccc(C(C)C)c(OCC(=O)N/N=C/C2CCCCC2)c1	·	·	·	·	4002	-16	-14
O=C(NCC(c1ccco1)N1CCc2ccccc2C1)c1ccccc1Br (configuration not stated)	2	8	3.7	9	6209	0	-6
CCOC(=O)C1=CN(Cc2ccco2)S(=O)(=O)NC1c1cccc(OC)c1 (configuration not stated)	1	6	2.1	4	3559	·	-14
FC(F)(F)c1cc(C(F)(F)F)c2ccc(Oc3ccccc3)nc2n1	6	7	4.5	16	15838	18	-4
O=C(COc1ccccc1)Nc1ccc(OC(F)(F)C(F)F)c(NC(=O)COc2ccccc2)c1	-2	6	2.9	-9	10373	9	-18
O=C(O)C(Br)CBr (configuration not stated)	·	·	0.0	3	6224	·	-19
O=C(/C=N/NC(=O)c1ccc(Cl)cc1Cl)c1ccccc1	·	·	·	·	4800	2	-55
CCCCn1c(CCNC(=O)CCC)nc2ccccc21	4	-8	7.1	12	4551	-7	-12
O=C(/C=C/c1ccccc1Cl)N1CCOCC1	12	17	0.2	1	3936	-7	-30
c1csc(-c2ccn[nH]2)c1	14	5	2.7	1	3990	-1	3
COc1ccccc1C=NNC(=O)C(=O)N1CCN(c2ccccc2OC)CC1	0	-6	4.2	6	·	·	·
CC1=CCCC(C)(C)C1/C=C/C(C)=N/NC(=O)c1ccncc1 (configuration not stated)	·	·	·	·	3780	6	12
Cc1cc(C)c2[nH]c(=O)c(=O)[nH]c2c1	12	-1	2.6	-6	?	2	-10
Cc1cc(C)c(/C=N/NC(N)=O)c(C)c1/C=N/NC(N)=O	·	·	·	·	2156	6	1
O=C(Nc1nnc(SCc2ccccc2)s1)C1=COCCO1	-1	-3	3.3	8	?	-3	-23
OCC1(Cc2ccccc2F)CCCN(CC2CCCCC2)C1 (configuration not stated)	1	13	2.4	8	6277	-4	-22
Cc1ccc(S(=O)(=O)N/N=C/c2cccc(OC3CSC3)c2)cc1	·	·	·	·	2090	-4	-11
COc1ccc(NS(=O)(=O)c2cc(NC(=O)CNC(=O)c3ccc(C)s3)ccc2Cl)cc1	4	8	-14	37	2626	-24	-21
CN(CC(=O)NCCc1ccc(S(N)(=O)=O)cc1)CC(=O)Nc1cccc(F)c1	3	-4	1.4	5	?	·	-25
COc1ccccc1C(=O)NC(=O)COC(=O)CCOc1ccc(C)cc1	6	-6	2.4	8	6222	-17	-10
CCOc1ccc(/C=N/NC(=O)CC(=O)Nc2ccc(Cl)c(Cl)c2)cc1	·	·	·	·	2762	0	-44
CCC1=C2CC[C@H]3C(=O)N(c4ccccc4)C(=O)[C@H]3[C@H]2[C@@]2(C)C(=NCC3CC3)OC(=O)N2C1=O	·	·	·	·	3487	-11	-5
CCc1ccc(CNC(=O)CCn2nc(C)c3c(C)n(-c4ccccc4)nc3c2=O)cc1	12	5	1.6	4	6151	-10	-11

Later entries.
SMILES	Mtb hypoxia inh	Mtb hypoxia inh growth	Sa RN4220 lethal	Sa ugtP lethal	Bead autofluor	BJeLR viability	PrP 5UTR inh
COc1cc(/C=N/NC(=O)Cc2csc(C)n2)ccc1OCC(C)C	·	·	·	·	4148	-6	-14
CCOC(=O)c1nn(-c2ccc(F)cc2)c(=O)cc1OCC(=O)Nc1ccc(F)c(F)c1	-4	3	0.4	-5	5659	-3	-14
CC(=O)Nc1ccc(S(=O)(=O)Nc2nc3c(s2)CCCC3)cc1	14	15	-8.7	3	2805	-1	-19
CC(=O)Nc1ccc(S(=O)(=O)N(Cc2ccco2)CC2CCCO2)cc1 (configuration not stated)	·	·	2.5	13	2815	10	-11
CC(=O)c1cn(C(=O)c2ccc(Cl)cc2)c2ccccc12	-9	-9	0.0	4	3188	-3	0
CC(C)CNC(=O)c1c(N)n(Cc2ccco2)c2nc3ccccc3nc12	-1	1	-8.2	-21	3734	-8	-24
COc1cc(/C=C/C2=NC(=O)C(C)(C)O2)ccc1O	11	3	3.7	16	·	-5	·
COc1ccc2c3c(cccc13)OC2=O	3	7	6.2	9	4577	-6	-8
Nc1ccc(-c2cnc3ccccc3n2)cc1	10	-5	7.0	-6	·	-3	·
Cc1ccc(Cn2ccc(NC(=O)c3cc(CC(C)C)on3)n2)cc1	1	6	-13	9	5549	2	-12
Cc1nonc1C(=O)N/N=C/c1cccc(O)c1	·	·	·	·	9792	1	-27
O=C(Nc1cccc(S(=O)(=O)N2CCOCC2)c1)c1ccccn1	-4	6	3.3	7	4869	4	-14
COC(=O)N/N=C/c1cccs1	·	·	·	·	4507	3	-18
Cn1c(SCC(=O)N2CCCC2)nc2ccccc2c1=O	·	·	3.2	-2	10661	9	-27
O=C(O)CCC(=O)N(Cc1ccco1)C1CC(=O)N(c2ccccc2)C1=O (configuration not stated)	7	-1	7.3	3	6036	5	-15
CCCn1nnnc1NCc1ccccc1OCc1ccc(F)cc1	-4	0	2.5	-7	7633	-3	7
N#Cc1ccc(S(=O)(=O)N2CCC(C(=O)N3CCN(Cc4ccc5c(c4)OCO5)CC3)CC2)cc1	3	8	1.3	0	4434	·	-3
Cc1ccc(S(=O)(=O)N2CCCCC2)cc1C(=O)NCCCN1CCOCC1	6	19	0.3	4	5658	3	-10
CC(=O)C1=C(C)NC(C)=C(C(C)=O)C1c1ccc(-c2ccccc2Cl)o1	4	2	10	-21	2321	·	6
O=C(O)c1cc(NC(=O)c2ccccc2[N+](=O)[O-])ccc1O	-2	4	5.9	1	3511	-2	-15
CC1CCC(NC(=O)CN2C(=O)NC3(CCCCCC3)C2=O)CC1 (configuration not stated)	-3	9	0.2	3	8512	·	-5
CC1=C(C(=O)Nc2ccccc2)C(c2ccccc2[N+](=O)[O-])NC(=O)N1 (configuration not stated)	0	6	4.3	-5	2077	-1	-18
O=C(Nc1ccccc1)C1CCCN1C(=O)Nc1ccccc1[N+](=O)[O-] (configuration not stated)	-7	5	-1.4	-1	2526	-6	-2
O=C(O)[C@H]1NC[C@H]2C[C@H]21	4	1	4.9	8	3707	-11	-75
CN1CCCC(C#CC(O)(c2ccccc2)c2ccccc2)C1 (configuration not stated)	0	4	-0.6	-4	2555	-4	-21
COc1ccc(C(=O)NCc2ccc(C)cc2)cc1S(=O)(=O)N1CCCC1	4	0	0.3	5	·	·	·
COc1cccc(C(=O)NCCC2=CCCCC2)c1OC	·	·	9.7	1	4193	0	-87
CC(C)NS(=O)(=O)c1ccc(OCC(=O)Nc2ccc(F)cc2F)cc1	5	0	1.2	12	24368*	-15	-1
CCN(CC)C(=O)CC(c1cc(OC)c(OC)c(OC)c1)c1c(OC)cc(OC)c2ccc(=O)oc12 (configuration not stated)	3	1	2.4	-4	2981	-3	-7
Cn1c(=O)oc2cc(S(=O)(=O)Nc3ccccc3F)ccc21	17	11	7.5	17	3499	5	-15
NC(=S)N/N=C/c1ccc(-c2ccc(SC(F)F)cc2)o1	·	·	·	·	3217	4	-28
O=C(c1ccc(S(=O)(=O)Nc2ccccc2)cc1)N1CCOCC1	·	·	-0.3	-11	5047	0	-11
Cc1cc(NS(=O)(=O)c2ccc(NC(=O)CSc3nnc(-c4ccco4)n3N)cc2)nc(C)n1	·	·	·	·	2168	-10	-16
COC(=O)c1sc(NC(=O)c2cc(-c3ccccc3)nc3ccccc23)c(C#N)c1C	·	·	2.0	-6	2786	28	-27
Cc1cccc(-n2nc3c(c2NC(=O)CCCl)CSC3)c1	11	7	9.4	7	3351	-8	-41
Cc1cc(=O)[nH]c(SCC(=O)Nc2nc3ccccc3s2)n1	15	-4	-6.9	10	4340	10	-15
O=C1CSC(c2ccccn2)N1c1ccc(C(F)(F)F)cc1 (configuration not stated)	3	14	1.4	4	·	1	-11
Cc1cccc2cc(CN(CCCN(C)C)C(=S)NCCc3ccccc3)c(=O)[nH]c12	6	14	3.0	8	4303	3	-8
COc1ccc(NC(=O)NNS(=O)(=O)c2ccc(OC)c(OC)c2)c(OC)c1	1	-4	4.1	13	4068	12	-23
CCOC(=O)C1(Cc2cccc(Cl)c2)CCCN(C(=O)c2cc(C)n(C)n2)C1 (configuration not stated)	5	0	4.5	5	6026	-2	-37
Cn1nc(C(=O)OCC(=O)Nc2ccccc2OC(F)F)c2ccccc2c1=O	6	7	3.9	5	4713	·	-5
